Sa helicase inh – blocks Staphylococcus aureus DNA helicase; purified S. aureus helicase, fluorescence unwinding assay; about half of the hits fall short of the stated cut; inhibition, %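 (tested at about 80 µM)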; actives 0.05% (n = 120,000);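 active = both duplicates at 50% or more, or one of them with a favoured structure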;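 also: 0% = mean of negative control wells and 100% = mean of positive control wells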
MgrA-DNA mod – modulators of Staphylococcus aureus MgrA DNA binding | inhibition, %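 (about 10 µg/mL by stock and volumes)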 | AID 602314 | actives 0.13% (n = 84,000) | fluorescence polarization;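 active = above 50% in either of two replicates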;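 also: 0% = protein plus DNA without compound and 100% = DNA alone without protein; higher means less MgrA bound to DNA so lower polarization; one replicate is shown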
Active calls of the source: *; x = no result given. This is a subset; the hit share may differ from the screen's.

MgrA-DNA mod	Sa helicase inh	SMILES
0.3	10	Cc1ccc2c(Cl)c(C(=O)N(Cc3cccs3)C3CCS(=O)(=O)C3)sc2c1 (stereo not given)
-0.3	10	CCCn1c(SCC(=O)N2CCCC2)nnc1C(C)C
1.6	-16	Fc1ccc(C2CC(c3ccc(Cl)cc3)=Nc3nc(-c4ccccc4)cn32)cc1 (stereo not given)
x	-4	O=C(NCC1CCCO1)c1cc2c(=O)n3ccccc3nc2s1 (stereo not given)
x	-10	CCCCCCSc1nnc(/N=C/NO)s1
x	-24	Cc1cccc(NC(=O)C2CCCN(c3cnccn3)C2)c1 (stereo not given)
-0.9	x	COc1cc(C2NC(=O)NC(C)=C2C(=O)OCC2CCCO2)ccc1OCc1ccccc1 (stereo not given)
-0.9	-2	CCc1nc2sc(C)c(C)c2c(=O)n1N
x	2	CCOC(=O)c1cnc(SCC(=O)OCN2C(=O)c3ccccc3C2=O)nc1N
x	7	CN(C(=O)COc1nnc(-c2cccs2)c(-c2cccs2)n1)c1ccccc1
x	-12	CSC(SC)=C1C(=O)OC(C)(C)OC1=O
-1.9	x	OCCNC(=S)NC1CCCCC1
x	10	CN(C(=O)CSc1nc2cc(C(=O)O)ccc2c(=O)n1Cc1ccccc1)C1CCS(=O)(=O)C1 (stereo not given)
x	6	Cc1cccc(NC(=O)COC(=O)Cn2cnc3ccccc3c2=O)c1
0.6	8	CC(C)OC(=O)CSc1nnc(-c2ccccc2)n1Cc1ccco1
24	11	COc1cccc2c1OCc1sc3[nH]c(=S)[nH]c(=O)c3c1-2
-0.5	x	CC(=O)c1sc(N2N=C(c3cccs3)CC2c2ccc(F)cc2)nc1C (stereo not given)
x	-21	Cc1oc(-c2ccc(C(=O)NCCN3CCCCC3)cc2)nc1COc1ccccc1
x	-1	O=C(Cc1cn2ccsc2n1)N/N=C1/CCSc2ccc(F)cc21
4.8	11	CC(=O)n1c2ccccc2c2nc(N)sc21
-1.1	10	O=C(CSc1ccccc1)N/N=C/c1ccccc1O
1.2	x	NC(=O)c1nnc2ccccc2c1N
6.9	6	Nc1sc(-c2ccccc2)c(Cc2ccccc2)c1C(=O)O
x	12	COc1cc(/C=N/N=C(N)N)ccc1OC(=O)c1ccc(C)cc1
x	23	CCc1c(CSC(=N)N)csc1C

MgrA-DNA mod	Sa helicase inh	SMILES
-0.5	5	CC1CC2(NC(=O)NC2=O)C(C)CN1C (stereo not given)
x	-21	CCOC(=O)c1ccc(NC(=O)c2ccc(NC(=O)C3CCCO3)cc2)cc1 (stereo not given)
-0.6	x	Cc1c(C(=O)NCc2ccc(N3CCN(C)CC3)cc2)cnn1-c1ccc(Cl)cc1
x	-16	Clc1cccc(C(c2nnc(-c3ccccc3)o2)N2CCN(c3ccccc3)CC2)c1 (stereo not given)
0.9	x	Cc1cccc(NC(=O)C2COc3ccccc3O2)c1 (stereo not given)
1.4	x	COCCOC(=O)C1=C(C)NC2=C(C(=O)CC(c3ccc(Cl)cc3)C2)C1c1ccc(Br)cc1 (stereo not given)
x	3	C=CCNC(=S)NCc1ccccc1
x	9	Cc1noc(C)c1NC(=O)NC(c1ccccc1)c1ccccc1
x	11	NC(=O)c1ccccc1OCCOc1ccccc1
x	-23	O=C(O)CCCC(=O)Nc1cccc2ccccc12
x	19	C[C@@H]1CCC2[C@](C)(CO)[C@@H](O)CC[C@]2(C)[C@@]12CCC1(COC(=O)C1)O2 (stereo not given in full)
x	13	CNC(=O)c1ccc2c(c1)N=C(C)c1c(C)ccc(C)c1S2
-1.0	x	CSc1sc(Br)c2c1C(=O)CCC2
x	-2	CCc1ccccc1NC(=O)c1cc(-c2ccccc2O)on1
x	1	NC(=O)COC(=O)c1ccc(Cl)cc1
1.7	-6	Cc1ccc(C(c2nnnn2C2CCCC2)N2CCc3ccccc32)cc1 (stereo not given)
-1.1	5	Cc1[nH]nc2c1C1(CCN(C(=O)c3ccccc3)CC1)C(C#N)=C(N)O2
0.3	4	COc1ccc(NC(=O)c2ccccc2NC(=O)c2ccco2)cc1
x	3	CSc1ccccc1C(=O)OCC(=O)NC1CCCC1
1.8	7	COc1cccc2cc(-c3ccc(F)cc3)c(=O)oc12
x	-11	O=COC1CCCCC1NS(=O)(=O)c1ccccc1 (stereo not given)
x	2	NC(=NCc1ccccc1)NS(=O)(=O)c1ccccc1
x	8	CCCCN(C)S(=O)(=O)c1ccc(-c2ccc(=O)[nH]n2)o1
x	-2	Cc1ccc(S(=O)(=O)N2CCC(C(=O)OCc3cc(=O)n4cc(C)ccc4n3)CC2)cc1
-4.1	9	O=C(CSc1nnnn1C1CCCC1)N1CCCC1

Some of the entries so far, in CSV form.
Structure,MgrA-DNA mod,Sa helicase inh
Cc1c(C(=O)NCc2ccc(N3CCN(C)CC3)cc2)cnn1-c1ccc(Cl)cc1,-0.6,x
C=CCNC(=S)NCc1ccccc1,x,3
Cc1[nH]nc2c1C1(CCN(C(=O)c3ccccc3)CC1)C(C#N)=C(N)O2,-1.1,5
COc1cccc2cc(-c3ccc(F)cc3)c(=O)oc12,1.8,7
NC(=NCc1ccccc1)NS(=O)(=O)c1ccccc1,x,2

(next part)
MgrA-DNA mod	Sa helicase inh	SMILES
0.0	x	CN1C(=O)C(O)(C2COC(C)(C)CC2=O)c2ccccc21 (stereo not given)
0.4	x	COC(=O)CNC(=O)c1cccnc1Sc1ccccc1
x	-7	CCOc1ccc(-c2nc3cc(N)ccc3o2)cc1
x	9	CCOc1ccc(Cc2nc(C)c(CC(=O)N3CCCCC3)c(=O)[nH]2)cc1
2.6	3	C=CCn1c(O)c(C2=c3cc(Br)ccc3=NC2=O)c2ccccc21
x	7	Cc1cccc(C)c1NC(=O)Cn1nnc(C(=O)NCc2ccccc2Cl)c1N
x	10	CON(C)S(=O)(=O)c1ccc(C(=O)O)cc1
-1.6	x	O=C(CO)c1ccc(F)cc1
-0.1	4	COc1ccc2nc(NC(=O)c3ccc(Br)cc3)sc2c1
x	10	CC(c1ccccc1)n1c(CCCO)nc2ccccc21 (stereo not given)
x	3	CC(C)COc1cccc(OCC(=O)NC(C)C(=O)O)c1 (stereo not given)
x	-14	O=S(=O)(NCc1ccc2c(c1)CCO2)c1ccc(C(F)(F)F)cc1
-2.0	0	O=C(COC(=O)c1cccs1)NC1CCCC1
1.7	2	Cc1cc(C)n(-c2nnc3n2N=C(c2c[nH]c4ccccc24)CS3)n1
-2.1	5	Cc1ccc2nc(C3CCCCC3)oc2c1
x	-9	COc1ccc(C2CC(=O)N(CC(N)=O)c3ccccc3S2)cc1OC (stereo not given)
0.3	10	COc1ccc(CCNC(=O)CSc2ncnc3c2nnn3Cc2ccccc2)cc1OC
25	-4	CC(C)(C)C(=O)/C=C/c1ccco1
x	-18	c1ccc(CNC2=NCCCCC2)nc1
x	-12	COc1ccc(NC(=O)C23CCC(C)(C(=O)O2)C3(C)C)cc1 (stereo not given)
x	9	CN(C)c1ccc(NC(=O)CC2SC(N)=NC2=O)cc1 (stereo not given)
2.0	x	CCN(CC)S(=O)(=O)c1ccc(C(=O)OCCN2C(=O)c3cccc4c(N5CCOCC5)ccc(c34)C2=O)cc1
-1.4	x	COc1ccc(Sc2ccccc2COC(C)=O)c(C(=O)O)c1
-1.7	5	CC(C)(C)OC(=O)N1CCN(c2ccc(NC(=O)c3ccco3)cc2)CC1
9.1	-2	CCOc1ccc(NC(=O)CC2Oc3ccccc3NC2=O)cc1 (stereo not given)

A portion taken from the entries so far, for reference:
MgrA-DNA mod	Sa helicase inh	SMILES
0.0	x	CN1C(=O)C(O)(C2COC(C)(C)CC2=O)c2ccccc21 (stereo not given)
0.4	x	COC(=O)CNC(=O)c1cccnc1Sc1ccccc1

(next part)
MgrA-DNA mod	Sa helicase inh	SMILES
-1.1	8	O=C(c1cccc(N2C(=O)c3ccccc3C2=O)c1)N1CCCCC1
2.7	x	Nc1ccc(C(=O)/C(=C\c2cccc([N+](=O)[O-])c2)C(=O)c2ccc(-c3ccccc3)cc2)cc1
4.0	9	NNC(=O)c1nnn(-c2nonc2N)c1CNc1ccccc1
-0.7	x	CC(C)n1c(C(F)(F)F)nc2cc(C(=O)N3CCOCC3)ccc21
0.7	19	Cc1ccc(NC(=O)C2CCN(S(=O)(=O)c3c(C)nn(C)c3C)CC2)c(Cl)c1
x	-2	COC(=O)CCSc1nc2c3ccccc3ncn2n1
x	-8	O=C(CNc1ccc(Cl)cc1)N1CCN(c2ccccc2)CC1
-0.7	11	CCc1nn(C(CC)C(=O)NC2CCCC2)c(=O)c2cc3oc(C)cc3n12 (stereo not given)
x	6	CCCCNC(=O)C1CC(=O)N(CCc2ccccc2)C1 (stereo not given)
5.5	9	S=c1oc2ccccc2n1Cn1c(=S)oc2ccccc21
3.1	0	COc1ccc(C2C(C#N)=C(C)NC(C)=C2C(=O)Nc2ccccc2)cc1 (stereo not given)
x	3	Cc1ccc(-n2nc(C)c(C(=O)N3CCN(c4ncccn4)CC3)n2)c(C)c1
-1.8	x	FC(F)(F)c1cccc(-c2nn[nH]n2)c1
1.1	15	CCOCC(=O)NCc1ccccc1Cl
6.1	15	C=CCn1c(=O)c(C(=O)NC)c(O)c2ccccc21
-1.8	-2	CC(C)C(=O)N(C)c1nnc(-c2ccc(F)cc2)s1
x	20	COc1cc2nc(CSc3nnc(C4CC4)n3C3CC3)[nH]c(=O)c2cc1OC
-0.2	x	c1ccc(-c2ccc3c(n2)CCc2ccccc2-3)cc1
-0.4	5	COc1ccc(NC(=O)c2ccco2)c(NC(=O)Cc2cccs2)c1
x	11	COc1ccc(NC(C)=O)cc1
x	-3	Cc1nnc(NCCc2ccccc2)c2c1nnn2Cc1ccc(F)cc1
-1.5	-8	CC(C)C1=CC2=C(CC(C)(C)CC2=O)OC1N(C)C (stereo not given)
1.0	5	CC(C)(C)C(=O)Cn1c(=O)n(CC2CCC(C(=O)NCc3ccccc3)CC2)c(=O)c2ccccc21 (stereo not given)
-0.9	x	Cc1nc(-c2ccccc2)cc(N2CCCC2)n1
0.1	x	CC(C)(C)C(=O)COC(=O)Cn1nnc(N2CCCC2)n1

Arranged by the number under Sa helicase inh (descending): 3 from the list above
SMILES	MgrA-DNA mod	Sa helicase inh
CCc1nn(C(CC)C(=O)NC2CCCC2)c(=O)c2cc3oc(C)cc3n12 (stereo not given)	-0.7	11
COC(=O)CCSc1nc2c3ccccc3ncn2n1	x	-2
CC(C)C1=CC2=C(CC(C)(C)CC2=O)OC1N(C)C (stereo not given)	-1.5	-8

Continued.
MgrA-DNA mod	Sa helicase inh	SMILES
2.5	2	CCn1c(C(=O)O)c(CNCc2cccc(Cl)c2)c2ccc(C)cc21
x	16	CCOC(=O)c1c(C)[nH]c(C)c1S(=O)(=O)N(CC)c1ccc(OC)cc1
1.1	4	CCN(CC)C(=O)C1=CC(c2ccc(F)cc2)=NS(=O)(=O)N1C
-0.2	-1	Cc1ccc(-c2nnc(SCC(=O)N3CC(C)CC(C)C3)o2)cc1 (stereo not given)
1.0	x	COc1cc(/C=C2\N=C(c3cccc(Br)c3)OC2=O)ccc1OC(C)=O
1.1	-21	Cc1cc(NC(=O)Cc2cccc3ccccc23)no1
-1.3	x	CCCc1cc(=O)[nH]c(SCC(=O)Nc2ccc(F)c(Cl)c2)n1
-5.0	x	CSC(SC)=C(C#N)c1nc2ccccc2s1
x	19	CCOC(=O)c1c(CSC#N)oc2ccc(OC(C)=O)cc12
0.7	x	CSC(=NCc1ccc(-c2cccs2)s1)NC#N
x	21	CC1=CC(C)C(COC(=O)CN2CCOCC2)C(C)C1 (stereo not given)
-1.1	x	COc1ccc(C(C#N)=C2SCCS2)cc1
-1.1	9	CCOC(=O)c1nccnc1N(C(=O)c1ccc(C)cc1)C(=O)c1ccc(C)cc1
-1.1	x	COc1ccc(Cc2nnc(N)o2)cc1OC
x	17	Cc1cc(C)n2nc(C(=O)NC(C)C3CC4CCC3C4)nc2n1 (stereo not given)
2.2	-3	NC(=O)c1ccc[n+](CC(=O)c2ccccc2)c1
0.1	-9	CCOC(=O)CC1C(=O)NCCN1Cc1cccc2ccccc12 (stereo not given)
7.0	8	O=c1cc(-c2ccccc2)nc(SCCO)[nH]1
-9.3	9	Cc1ccc(C(CC(=O)O)C2CCOC(C)(C)C2)cc1 (stereo not given)
x	15	CCN1CCc2c(OCC(=O)Nc3ccc(OC)cc3)cccc2C1=O
x	-9	CCN1CCCC1CNC(=O)c1ccc(-n2ccc3ccccc32)s1 (stereo not given)
0.0	x	COc1ccc(C2=NN(C(=O)CCCC(=O)O)C(c3ccccc3Cl)C2)cc1 (stereo not given)
x	25	Cc1cc(C)cc(N2C(=O)N(CC(=O)NC(C)C)C3CS(=O)(=O)CC32)c1 (stereo not given)
x	-1	COc1cc(/C=N/NC(=O)c2ccccc2-n2cccc2)ccc1O
x	7	Clc1ccc(NCC2CCCCC2)nn1

Single records (already shown):
Results for `C=CCn1c(O)c(C2=c3cc(Br)ccc3=NC2=O)c2ccccc21` → MgrA-DNA mod: 2.6; Sa helicase inh: 3
Results for `NC(=O)COC(=O)c1ccc(Cl)cc1` → MgrA-DNA mod: x; Sa helicase inh: 1

Further entries:
MgrA-DNA mod	Sa helicase inh	SMILES
0.8	14	COC(C(=O)NCc1ccccc1C)c1ccccc1 (stereo not given)
2.4	-20	CCN(CC(O)c1cccc(O)c1)C(=O)C12CC3CC(CC(C3)C1)C2 (stereo not given)
x	4	O=C(O)c1cnn(-c2ccccc2)c1-n1cccc1
x	-7	Clc1nc(-c2ccccc2)nc2ccccc12
x	-9	COC(=O)CC1C(=O)NCCN1C(=O)CSc1nc2ccccc2c(=O)n1-c1ccc(C)cc1 (stereo not given)
x	8	CCC(CC)c1nnc(NC(=O)C2=NNC(=O)CC2)s1
x	12	CN(C)CCOC(=O)C1(c2ccccc2)CCOCC1
-1.9	4	O=C(NCc1ccccc1)N1CCN(C(c2ccc(F)cc2)c2ccc(F)cc2)CC1
x	4	CCN(CC)C(=O)c1ccc2c(c1)N(Cc1ccc(F)cc1)C(=O)c1ccccc1S2=O (stereo not given)

Screening data from PubChem.
